TRPML1 blocker – blocks the human TRPML1 channel; Q9GZU1; TRPML1-inducible cells, Ca2+ dye fluorescence, FDSS; hits give low values; inhibition of EC80 agonist-evoked calcium signal; activity change, negative = inhibition, % (no concentration beside the values); hit rate 0.02% among 390,000; AID 624415; in the data active means activity change below about -50%; inconclusive means about -30% to -50%; inactive means above about -30%;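 further: stimulus is agonist 54-4 at its EC80 concentration; on the % scale 0 is the no-effect control and ±100 the full control effect; compound concentration not given in the record; the text of the record puts the active cut at -80%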
Target sequence (Q9GZU1 whole entry, looked up): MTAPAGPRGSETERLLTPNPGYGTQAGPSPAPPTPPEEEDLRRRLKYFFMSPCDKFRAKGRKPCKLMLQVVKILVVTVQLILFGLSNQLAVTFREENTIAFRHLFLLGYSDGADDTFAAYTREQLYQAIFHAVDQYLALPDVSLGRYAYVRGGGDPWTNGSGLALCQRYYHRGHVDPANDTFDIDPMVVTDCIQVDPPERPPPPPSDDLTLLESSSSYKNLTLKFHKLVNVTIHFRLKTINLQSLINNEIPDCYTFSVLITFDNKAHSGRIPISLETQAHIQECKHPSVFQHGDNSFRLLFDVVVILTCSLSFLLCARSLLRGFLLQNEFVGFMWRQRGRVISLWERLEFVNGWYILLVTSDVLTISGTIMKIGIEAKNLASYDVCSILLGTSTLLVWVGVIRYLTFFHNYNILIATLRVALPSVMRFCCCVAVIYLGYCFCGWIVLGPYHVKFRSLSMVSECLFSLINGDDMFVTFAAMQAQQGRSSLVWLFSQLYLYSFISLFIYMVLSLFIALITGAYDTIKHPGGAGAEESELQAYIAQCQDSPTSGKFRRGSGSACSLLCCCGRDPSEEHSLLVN
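Tet-induced TRPML1-DL cells loaded with Ca8 no-wash calcium dye were read kinetically on FDSS. Compound addition was followed by EC80 agonist 54-4 (4 uM final); inhibition was read over 110 s.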
ClpP mod – qHTS Assay for Activators of ClpP; ATP-dependent Clp protease proteolytic subunit (Bacillus subtilis (strain 168)), P80244; purified B. subtilis ClpP, FRET peptide cleavage, 20 min; Potency, µM (doses to about 57.5 µM), without a hit: at the highest dose activity change, negative = active; hit rate 1.9% among 340,000; AID 651965, 2013; active = well fitted falling curve with a large enough effect; inconclusive = small, poorly fitted or top-dose-only effect; inactive = no such curve, though single readings can be large or run the other way; further: potency means the concentration at half of the fitted maximal effect; the source files actives as falling curves though it sought activators and does not explain the sign; nearly all actives have a fitted effect of over 65% in size; many hits overshoot -100%
Target sequence (P80244 whole entry, looked up): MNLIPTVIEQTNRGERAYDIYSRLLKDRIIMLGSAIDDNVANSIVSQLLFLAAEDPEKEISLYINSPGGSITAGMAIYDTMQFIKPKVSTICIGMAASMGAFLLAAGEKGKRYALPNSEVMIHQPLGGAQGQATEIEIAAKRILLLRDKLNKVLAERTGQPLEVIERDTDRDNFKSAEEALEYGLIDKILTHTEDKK
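FRET quenching reversal measured ClpP activation: 10 microg/mL B. subtilis ClpP at pH 8 with the FRET-FV decapeptide, read at 430 nm after 320 nm excitation. The 20-min minus 0-min signal was scaled between DMSO/no-enzyme wells and ADEP (5.8 microM final).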
gsp antag – antagonists of gsp mutant (McCune-Albright syndrome); gsp-mutant cells, cAMP HTRF, 30 min; control for the full effect not named in the record; AID 624288; hit rate 0.4% among 340,000; Potency, µM (highest dose often 76.9 µM), for the others: top-dose activity change, negative = inhibition, actives largely listed as inhibitors; active = falling curve of any shape with a large fitted effect; inconclusive = falling curve, mostly with a smaller effect; inactive = flat or rising curve; cell line not stated here;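 further: intracellular cAMP measured with PDE inhibitor Ro 20-1724 present during compound exposure; potency means the concentration at half of the fitted maximal effect; on the % scale 0 is the no-effect control and ±100 the full control effect; nearly all actives have a fitted effect of over 65% in size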
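HTRF cAMP measurement after 30 min RT detection following 30 min, 37C compound treatment alongside […] (added as 300 uM solution) in G418-selected cells seeded at 2000/well and grown 16–24 h.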
Menin-MLL FL inh – menin-MLL binding inhibition, fluorescein peptide. AID 1766. 290,000 tested, under 10 active. Fluorescence polarization, fluorescein-MLL peptide displacement from menin. FP activity change, % at 61.4 µM; inconclusive = falling polarisation curve, or a change in total fluorescence; inactive = total fluorescence flat and polarisation flat or rising; no compound was filed as active; the % refers to the polarisation; negative = inhibition;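 further: % of control where 0% means no effect; inhibitors lower the polarisation; unlabelled MLL peptide was the positive control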
gsp ag – gsp mutant agonism; gsp mutant cells, cAMP HTRF, 30 min; control for the full effect not named in the record; Potency, µM (highest dose often 76.9 µM), for the others: top-dose activation (cAMP increase), most hits filed as activators; hit rate 0.13% among 340,000; active = well fitted activation curve with a large enough effect; inconclusive = small, poorly fitted or top-dose-only effect, or another doubt; inactive = no such curve, though single readings can be large or run the other way; cell line not stated here;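 further: phosphodiesterase inhibitor Ro 20-1724 added with compounds to block cAMP breakdown; potency means the concentration at half of the fitted maximal effect; nearly all actives have a fitted effect of over 60% in size; about a fifth of the inactives were tested at one dose only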
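Cells stably selected in G418 were plated at 2000/well, grown 16-24 hr, then given compounds in DMSO with the PDE inhibitor […] (300 uM solution added) for 30 min at 37C; cAMP was read by HTRF.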
Sfp inh – blocks B. subtilis Sfp PPTase activity | Biochemical Sfp PPTase activity, qHTS | Potency, µM, without a hit: max response, negative = inhibition, hits mostly inhibitors | hit rate 3.5% among 310,000 | AID 1490; active means well fitted inhibition curve with a large enough effect; inconclusive means small, poorly fitted or top-dose-only effect, or another doubt; inactive means no such curve, though single readings can be large or run the other way;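 further: the enzyme is Sfp with the accession as filed and its product quenches rhodamine fluorescence; potency means the concentration at half of the fitted maximal effect; 0% = enzyme reaction without inhibitor and -100% = no enzyme wells; top concentration of the series not given in the record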
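Fluorescence-quenching assay: 15 nM Sfp-PPTase preincubated 15 min at room temperature with compound, then 5 uM rhodamine-CoA and 12.5 uM BHQ-2-labelled YbbR peptide added. Fluorescence (ex 525/em 598 nm) read at start and after 30 min; difference gives rate.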
TRPV1 PAM – potentiators of human vanilloid receptor 1 (TRPV1); AID 540277; Q8NER1; TRPV1-expressing cells, Fluo-8 calcium influx, capsaicin EC20 potentiation; host cell line not named in the record; control for the full effect not named in the record; potentiation, % at 8.33 µM; hit rate 0.02% among 320,000; active means potentiation above 80%; inconclusive means 30% to 80%; inactive means below 30%; further: 0% is about no effect
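Cells expressing TRPV1 were dye-loaded with Fluo-8 and read kinetically: 10 s baseline, 3 min after compound (agonist portion), then 2 min after EC20 capsaicin (allosteric enhancer portion). Calcium-bound dye fluorescence at 480/520 nm.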
* marks the source's active call; other numbers are inactive results; u = inconclusive; x = not tested or not shown; [ ] = remark or other dose.

SMILES	TRPML1 blocker	ClpP mod	gsp antag	Menin-MLL FL inh	gsp ag	Sfp inh	TRPV1 PAM
O=C(NCCNC(=O)c1ccc(-c2ccc(Cl)c(Cl)c2)o1)c1cnccn1	-5	x	6%	x	u	-1%	4
CCCCc1cc(=O)oc2cc(OS(C)(=O)=O)ccc12	7	1.2%	-3%	0.7	-3%[15.4 µM]	0%	-15
COc1ccc([C@H]2CC(=O)C=C(c3cccc4c3Oc3ccccc3S4)C2)cc1	10	-6.0%	-3%	x	x	x	4
CC(=O)N(Cc1nc2sc(C)c(C)c2c(=O)[nH]1)C1CCCC1	9	0.0%	-11%	1.5	8%[15.4 µM]	3%	-2
O=C(N/N=C/c1ccco1)c1cccc(N2Cc3ccccc3C2)c1	7	1.5%	-11%	12	-18%	-15%	9
Cn1c(=O)c2c(ncn2CC(=O)Nc2ccccc2N2CCOCC2)n(C)c1=O	3	-1.0%	25%	-1.5	u	9%	3
CCN(CC)C(=O)CSc1nnc(COc2cccc(C)c2)n1C	x	x	x	-1.6	x	1%	-2
O=C(Cn1c(C(=O)OCCO)cc2ccccc21)c1ccccc1	5	-0.7%	-8%	-2.2	-10%[15.4 µM]	22%	-11
CC(=O)c1c(O)c2ccccc2n(C(C)C)c1=O	19	-0.5%	9%	-4.2	u	u	3
CCOc1ccc(C(=O)NCC(=O)NCC2CCCCC2)cc1OCC	5	x	9%	x	1%[15.4 µM]	14%	0
CCOc1ccc(CCNC(=O)CCC(=O)N2CCOc3ccc(C)cc32)cc1OCC	-11	0.3%	-10%	3.5	-34%[inhibitor]	5%	29
NC(=O)C1CCN(C2CC(=O)NC2=O)CC1 (configuration not stated)	1	x	7%	1.1	8%	-21%	0
O=C(C[C@H]1C/C=C\CCC(=O)O[C@@H](c2ccccc2)CNC1=O)NCCO	12	-3.3%	5%	x	u	x	x
CCOc1cccc(C(=O)Nc2nnc(-c3ccco3)s2)c1	-22	-25%	-7%	0.2	10%	-10%	11
O=C(Nc1ccc(S(=O)(=O)Nc2cnc3ccccc3n2)cc1)c1cccc(OC(F)F)c1	-1	0.7%	-13%	x	-8%[15.4 µM]	33%	6
CCn1c(=O)c2c(nc3n2CCCN3CCc2ccc(OC)c(OC)c2)n(C)c1=O	24	0.9%	0%	-2.6	-10%[15.4 µM]	-7%	-14
Cc1cccc2cc(/C=N/NC(=O)CN3CCOCC3)c(Cl)nc12	22	-5.4%	12%	-0.7	27%	12%	-4
C=C1CC2C(CCC3(C)C2CCC3(O)C(C)=O)C2(C)CCC(=O)C=C12 (configuration not stated)	-7	0.5%	0%	-2.9	9%[15.4 µM]	2%	-2
COc1cccc(C(=O)OCC(=O)c2[nH]c(C)c(C(C)=O)c2C)c1	14	-0.4%	10%	x	8%	x	-30
COc1cccc(/C=C2\Oc3cc(OCC(=O)N4CCCCC4)ccc3C2=O)c1OC	4	-2.9%	-25%	3.2	u	-6%	-3

Given comma-delimited: 14 of the compounds above
molecule,TRPML1 blocker,ClpP mod,gsp antag,Menin-MLL FL inh,gsp ag,Sfp inh,TRPV1 PAM
CC(=O)N(Cc1nc2sc(C)c(C)c2c(=O)[nH]1)C1CCCC1,9,0.0%,-11%,1.5,8%[15.4 µM],3%,-2
O=C(N/N=C/c1ccco1)c1cccc(N2Cc3ccccc3C2)c1,7,1.5%,-11%,12,-18%,-15%,9
Cn1c(=O)c2c(ncn2CC(=O)Nc2ccccc2N2CCOCC2)n(C)c1=O,3,-1.0%,25%,-1.5,u,9%,3
CCN(CC)C(=O)CSc1nnc(COc2cccc(C)c2)n1C,x,x,x,-1.6,x,1%,-2
O=C(Cn1c(C(=O)OCCO)cc2ccccc21)c1ccccc1,5,-0.7%,-8%,-2.2,-10%[15.4 µM],22%,-11
CC(=O)c1c(O)c2ccccc2n(C(C)C)c1=O,19,-0.5%,9%,-4.2,u,u,3
CCOc1ccc(C(=O)NCC(=O)NCC2CCCCC2)cc1OCC,5,x,9%,x,1%[15.4 µM],14%,0
CCOc1ccc(CCNC(=O)CCC(=O)N2CCOc3ccc(C)cc32)cc1OCC,-11,0.3%,-10%,3.5,-34%[inhibitor],5%,29
NC(=O)C1CCN(C2CC(=O)NC2=O)CC1 (configuration not stated),1,x,7%,1.1,8%,-21%,0
O=C(C[C@H]1C/C=C\CCC(=O)O[C@@H](c2ccccc2)CNC1=O)NCCO,12,-3.3%,5%,x,u,x,x
CCOc1cccc(C(=O)Nc2nnc(-c3ccco3)s2)c1,-22,-25%,-7%,0.2,10%,-10%,11
O=C(Nc1ccc(S(=O)(=O)Nc2cnc3ccccc3n2)cc1)c1cccc(OC(F)F)c1,-1,0.7%,-13%,x,-8%[15.4 µM],33%,6
CCn1c(=O)c2c(nc3n2CCCN3CCc2ccc(OC)c(OC)c2)n(C)c1=O,24,0.9%,0%,-2.6,-10%[15.4 µM],-7%,-14
Cc1cccc2cc(/C=N/NC(=O)CN3CCOCC3)c(Cl)nc12,22,-5.4%,12%,-0.7,27%,12%,-4

Carrying on:
SMILES	TRPML1 blocker	ClpP mod	gsp antag	Menin-MLL FL inh	gsp ag	Sfp inh	TRPV1 PAM
Cc1nn(-c2ccccc2)c(NC(=O)c2cccs2)c(-c2ccccc2)c1=O	-4	-4.7%	7%	x	23%	8%	5
COC(=O)Nc1nc(-c2ccccc2)c(C(=O)c2ccccc2)s1	2	-2.1%	19%	1.2	15%	-4%	-9
O=C1OCC2=C1C(c1ccccc1)CC(=O)N2c1ccccc1 (configuration not stated)	13	x	5%	0.8	-3%[15.4 µM]	17%	-5
CCOC(=O)C(=O)N/N=C/c1ccc(F)cc1	-20	x	1%	0.5	-11%[15.4 µM]	4%	-3
CCOc1ncccc1C(=O)OCC(=O)c1cc(C)n(Cc2ccco2)c1C	7	5.2%	-7%	-2.9	22%	-27%	4
Cn1cnc(Sc2ncnc3nc[nH]c23)c1[N+](=O)[O-]	-16	-0.5%	12%	2.8	-23%	40µM*	2
Cc1ccc(S(=O)(=O)NCCCNC(=O)N2CCOCC2)cc1	2	1.0%	10%	1.4	-27%	11%	7
CCn1c(SCc2cccc(C)c2)nnc1-c1ccccc1	14	-0.4%	0%	-0.4	10%	-9%	22
COc1ccccc1/C=C/C=N/NC(=O)c1ccccn1	8	x	-12%	0.0	-5%	-15%	-22
CCOC(=O)CNC(=O)c1cc(-c2ccccn2)nc2c(C)c(Cl)ccc12	66	-1.1%	-2%	-4.7	-6%[15.4 µM]	11%	-5
CCc1nnc(NC(=O)CSc2ncnc3c2oc2ccccc23)s1	9	-1.0%	22%	0.0	u	-16%	3
Cc1ccc(S(=O)(=O)N(C)C)cc1NC(=O)C(C)OC(=O)c1ccc2ccccc2n1 (configuration not stated)	7	-7.8%	-3%	x	-10%	x	u
NC(=S)N/N=C1\CCOc2ccc(F)cc21	1	x	-5%	7.6	-4%[15.4 µM]	89µM*	-1
O=c1ccc2ccc(Oc3ccc([N+](=O)[O-])cc3Cl)cc2o1	-4	-1.8%	0%	2.4	16%	10%	-5
O=C(COC(=O)Cn1cnc2ccccc21)Nc1cccc2c1C(=O)c1ccccc1C2=O	-11	-0.2%	-4%	u	18%[15.4 µM]	u	4
Cc1nn(-c2ccccc2)nc1C(N)=O	-5	x	4%	-1.0	-17%[15.4 µM]	16%	9
CN(C)/C=C(\C=O)c1ccc(Cl)cc1Cl	17	-0.2%	-1%	-4.2	-3%	-10%	2
N#Cc1c(-c2ccc3c(c2)OCO3)ccn2nc(-c3cccc(C(F)(F)F)c3)nc12	13	u	7%	5.6	4%	16%	1
COc1ccc(CNC(=O)c2ccc(NC(=O)CC3SC(N4CCCCC4)=NC3=O)cc2)cc1 (configuration not stated)	4	-1.4%	2%	-2.5	6%	19%	13
O=C(COCC(=O)NCc1ccccc1)NCc1ccccc1	-14	x	1%	3.4	-24%	-12%	2
COc1cc(S(=O)(=O)NC(C)C)ccc1Cl	-3	-4.6%	-11%	1.4	3%	21%	4
CN1CCN(S(=O)(=O)c2cccc(C(=O)Nc3cccc(S(N)(=O)=O)c3)c2)CC1	-14	x	9%	-1.4	-22%	-1%	20
Cc1ccnc(NC(=O)C2CCC(CNc3c(N4CCCC4)c(=O)c3=O)CC2)c1 (configuration not stated)	19	-0.8%	-1%	2.4	u	21%	6
CCOc1ncccc1C(=O)Nc1ccc(S(=O)(=O)Nc2nccs2)cc1	-6	x	27%	3.7	27%[15.4 µM]	17%	-6
Cc1onc(-c2ccccc2Cl)c1C(=O)NC(=S)Nc1ccc(C(C)(C)C)cc1	-4	0.1%	-10%	4.1	-30%	2%	-4
COc1ccccc1NC(=O)c1ccc2nc(C)c(C)nc2c1	12	1.9%	3%	x	u	23%	u
O=C(CCCN1C(=O)c2cccnc2C1=O)Nc1ccc(F)cc1Cl	34	x	5%	4.3	u	1%	8
COc1ccc(N2CCN(C(=O)CCC(=O)N3CCOc4ccc(C)cc43)CC2)cc1	2	-3.9%	-7%	0.0	-27%	6%	-12
C/C(COc1ccccc1)=N\NC(=O)c1nnn(-c2nonc2N)c1CSc1ccc(C)cc1	-13	-3.6%	x	x	3%	x	x
CCOc1ccccc1N(CC(=O)Nc1cccnc1)S(C)(=O)=O	-6	0.7%	15%	0.6	u	3%	-3
O=C(Cc1ccccc1F)Nc1ccccc1-c1ccccc1	-2	x	10%	-0.7	0%[15.4 µM]	-1%	9
